HNF4A DNA FP: change in binding of human HNF4 alpha to DNA | P41235 | HNF4a-FITC DNA binding, fluorescence polarization, 1 h | activity change, % at 10 µM | 360,000 compounds, 0.3% hits; in the data active = activity change above about 30%, passing the limit was not always enough;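 note: controls were the assay level and a saturating level of protein; the project sought stronger binding though the title names inhibitors; some compounds called inactive have numbers as strong as hits; positive values seem to mean higher polarization but the record does not say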
Target sequence (P41235 whole entry, looked up): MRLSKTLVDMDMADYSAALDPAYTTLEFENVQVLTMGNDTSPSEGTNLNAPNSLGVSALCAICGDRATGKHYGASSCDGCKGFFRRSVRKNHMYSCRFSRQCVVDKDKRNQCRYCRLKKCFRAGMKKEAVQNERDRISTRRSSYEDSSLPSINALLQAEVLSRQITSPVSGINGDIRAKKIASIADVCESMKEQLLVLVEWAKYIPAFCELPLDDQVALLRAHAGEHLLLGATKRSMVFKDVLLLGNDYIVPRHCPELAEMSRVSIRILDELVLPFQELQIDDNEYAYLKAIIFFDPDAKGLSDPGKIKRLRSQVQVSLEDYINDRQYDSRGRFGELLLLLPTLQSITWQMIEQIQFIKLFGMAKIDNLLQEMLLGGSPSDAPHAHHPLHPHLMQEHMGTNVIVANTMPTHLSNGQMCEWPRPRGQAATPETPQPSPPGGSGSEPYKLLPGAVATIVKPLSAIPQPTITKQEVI
ALR inh: blocks human ALR sulfhydryl oxidase activity | 290,000 compounds, 3.8% hits | inhibition, % (test concentration not listed) | P55789 | purified ALR, DTT oxidation, H2O2 HRP-luminol luminescence;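 active = mean and each replicate at 75% or more; inconclusive = only one of the two met; inactive = neither met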;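 note: stock transfer was 7.5 nL into about 7.5 µL; 0% = neutral wells and 100% = wells with inactivated enzyme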
Target sequence (P55789 whole entry, looked up): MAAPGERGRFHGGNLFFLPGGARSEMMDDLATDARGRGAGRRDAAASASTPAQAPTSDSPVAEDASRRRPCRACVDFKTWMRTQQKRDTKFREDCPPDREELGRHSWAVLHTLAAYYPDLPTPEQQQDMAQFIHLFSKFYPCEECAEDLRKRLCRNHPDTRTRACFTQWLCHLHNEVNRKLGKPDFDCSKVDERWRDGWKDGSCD
Ecoli growth: inhibitors of Escherichia coli growth. OD600, 23 h; active compounds read low. OD600 absorbance (no concentration beside the values). 330,000 compounds, 0.21% hits;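 active = OD600 absorbance below the run mean of sample wells minus 3.6 SD, in any replicate, cut at about 0.56 in these data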;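 note: stock transfer was 300 nL into about 60 µL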
Vif TR-FRET: HIV-1 Vif–A3G interaction blockers – biochemical, TR-FRET, GST-Vif 1-94, biotin-A3G peptide, dose response retest, primary screen (AID 1117319). inhibition, %; hits with a dose series show IC50 in µM. TR-FRET GST-Vif / biotin-A3G peptide binding; higher % means a stronger effect; test concentration not given here; strong numbers were not always called active. 260,000 compounds, 0.57% hits;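 active = above the screen mean plus three standard deviations and confirmed in dose response; inconclusive = results disagree or hit not tested in dose response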;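 note: Vif residues 1-94 fused to GST binding biotinylated APOBEC3G peptide 110-148; 0% = full assay without inhibitor and 100% = GST in place of GST-Vif; retest series ran down from 100 µM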
FGF22 binding: FGF22 (human) thermal shift binding; Q9HCT0; recombinant FGF22 thermal shift, SYPRO orange fluorescence; percent of sucrose octasulfate shift, DMSO zero; calls only at 9.99 µM; 340,000 compounds, 1.5% hits; AID 651658;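 active = melting point raised past a set limit in the mean and every replicate; inconclusive = no clear call; three in four hits are not shown here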
Target sequence (Q9HCT0 whole entry, looked up): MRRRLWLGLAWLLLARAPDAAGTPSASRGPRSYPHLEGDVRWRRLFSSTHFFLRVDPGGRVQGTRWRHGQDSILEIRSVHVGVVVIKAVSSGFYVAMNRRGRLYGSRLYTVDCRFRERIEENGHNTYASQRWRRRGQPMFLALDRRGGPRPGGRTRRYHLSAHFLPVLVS
Ecoli rRNA inh: selective bacterial rRNA inhibition in E. coli | GFP signal change (wild-type ribosome), % (concentration not given with the values) | 350,000 compounds, 1.6% hits | E. coli WT GFP vs humanized-ribosome RFP mutants, fluorescence, 24 h; active compounds read low; DMSO median 0, no signal -100;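 active = significant combined selectivity score with lowered wild-type GFP, culture density cut under 30%, mutant RFP and density less affected; inactive = any of these conditions unmet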; note: one replicate is shown; some compounds called inactive have numbers as strong as hits
AF4-AF9 inh: inhibitors of human MLL-AF4/AF9 interaction; inhibition, % at 10 µM; P42568; 350,000 compounds, 0.47% hits; AlphaScreen, biotin-AF4 peptide binding to FLAG-AF9;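 active = every replicate reaching a set inhibition limit, whatever the replicate mean, cut at about 25% in these data; inconclusive = mean inhibition reaches that limit but some replicates miss it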;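 note: 0% = plate neutral control median and 100% = total signal loss; the record names both 10 and 1 µM as test concentration; the first replicate is given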
Ecoli rRNA inh OD600: also measured in Ecoli rRNA inh; calls as there; OD600 change, %; measured here: OD600 growth;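 optical density of the mix in the first replicate; 0 = DMSO median and -100 = no signal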
Ecoli rRNA inh RFP: second read-out of Ecoli rRNA inh, no call of its own (marks repeat the call); RFP signal change, %; measured here: RFP humanized mutant strains;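 first replicate; 0 = DMSO median and -100 = no signal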
* = called active by the depositor; i = inactive; ? = inconclusive; . = not tested or not shown; + = active, no number.

Value order: HNF4A DNA FP, ALR inh, Ecoli growth, Vif TR-FRET, FGF22 binding, Ecoli rRNA inh, Ecoli rRNA inh OD600, Ecoli rRNA inh RFP, AF4-AF9 inh
> Cc1sc2nc(CSC(C)C(=O)Nc3ccc(C(N)=O)cc3)[nH]c(=O)c2c1C (configuration not stated)
    9.1, 100*, 0.7, 4%, i, 2, 6, -1.8, -11
> CC(/C=N/N1CCN(c2ccccn2)CC1)=C\c1ccccc1
    12, -9, ., 10%, i, 2, 3, -4.5, 9.2
> O=C(Nc1ccncc1)c1cc(-c2ccccc2)nc2ccccc12
    -5.4, ., ., -14%, i, 13, 9, 0.6, 0.9
> COc1ccc(Cn2c(=O)[nH]c3cc(C(=O)N4CCN(c5ccccc5F)CC4)ccc3c2=O)cc1
    3.3, -9, 0.7, ., i, 8, 11, 0.5, -0.8
> Cc1cc2n(n1)C(c1ccc(N(C)C)cc1)Nc1ccccc1-2 (configuration not stated)
    0.7, 0, 0.69, -6%, ., ., ., ., .
> Cc1ccc(C(=O)NNC(=O)c2cccc(C)c2)cc1
    3.1, 3, 0.66, 0%, i, 17, 13, 3.1, -4.3
> N#CC(c1ccc(=O)[nH]n1)c1ccc(Cl)cc1Cl (configuration not stated)
    -2.6, 28, 0.65, -4%, i, 4, -4, 0.5, -5.1
> Cc1ccc(-c2nnc(OCC3CCCO3)c3ccccc23)cc1 (configuration not stated)
    1.5, 7, 0.71, ., i, -42, -39, -6.4, -0.2
> COCCOC(=O)C(CC(=O)O)NCc1ccco1 (configuration not stated)
    -2.3, -11, 0.69, ., i, 8, 7, -4.0, -4.4
> O=C(COC(=O)c1ccc(S(=O)(=O)N2CCCC2)cc1)NCc1ccc(Cl)cc1
    3.6, 1, 0.73, 5%, ., ., ., ., .
> COc1ccc(-c2cnc3nc[nH]c(=O)c3n2)cc1
    3.7, ., 0.76, ?, ., ., ., ., .
> COC(=O)c1cnn(-c2ccccc2)c1/C=N/NC(=S)Nc1ccc(Cl)cc1
    0.3, -10, ., -5%, i, -6, 8, -2.3, 0.7
> CCC(=O)N(C)C[C@H]1Oc2cc(C#Cc3ccncc3)ccc2S(=O)(=O)N([C@H](C)CO)C[C@H]1C
    ., ., ., ., i, -4, -13, 1.3, -1.9
> C=CCC[C@@H](Cc1ccc(F)cc1)C(=O)O[C@H](CNC(=O)[C@@H](CC=C)CC(=O)N[C@H](CO)Cc1ccccc1)c1ccccc1
    1.4, ., ., ., i, 17, 17, 4.0, -2.3
> Cc1c(C(=O)NCCc2ccccc2)oc2ccc(S(=O)(=O)N3CCOCC3)cc12
    -3.5, -5, 0.67, -6%, ., ., ., ., .
> CC(=O)N1[C@H](CN(CC(C)C)C(=O)c2ccccn2)[C@@H](c2ccccc2)[C@@H]1CO
    ., ., ., ., i, 2, 3, -2.3, -1.2
> N#Cc1c(N2CCCC(O)C2)nc(N)c2c(N)nc3c(c12)CC(=O)N3C12CC3CC(CC(C3)C1)C2 (configuration not stated)
    28, -63, 0.67, ?, ., ., ., ., .
> O=C(CN1CCOCC1)N/N=C/c1ccco1
    -1.1, 0, ., ?, i, 10, 6, 0.0, 2.8
> CCN1/C(=C/c2ccc3cc(C)ccc3[n+]2CC)Sc2cc(C)ccc21
    109*, ., 0.35*, -55%, i, 82, -76, 36, 19
> CCc1ccccc1NC(=S)NCc1ccc2c(c1)OCO2
    3.7, -4, 0.7, 8%, ., ., ., ., .
> CCN1C(=O)[C@H]2[C@@H](c3ccc(-c4ccc(OC)cc4)c(OC)c3)N[C@@](Cc3ccccc3)(C(=O)OC)[C@H]2C1=O
    -4.3, 5, ., ., i, 16, 11, 5.6, -4.8
> COc1ccc(OC)c(/C=N/NC(=O)c2ccc[n+](CC(=O)c3ccccc3)c2)c1
    -2.2, -6, ., -5%, ., ., ., ., .
> C[C@H]1CN([C@@H](C)CO)C(=O)c2cccc(NC(=O)c3cnccn3)c2O[C@@H]1CN(C)Cc1ccc(C(=O)Nc2ccccc2N)cc1
    ., ., ., ., i, -8, 1, 0.3, 1.4
> S=c1[nH]nc(-c2cccnc2)n1/N=C/C=C/c1ccccc1
    -2.6, 25, ., 33%, i, 8, 25, 7.7, -6.9
> CC(C)NC(=O)Nc1ccc2c(c1)C(=O)N([C@@H](C)CO)C[C@H](C)[C@@H](CN(C)Cc1ccc(C(F)(F)F)cc1)OCCCC[C@@H](C)O2
    ., ., ., ., i, 4, 3, -3.1, 3.6
> Cc1noc(C)c1S(=O)(=O)N(C)C[C@H]1OCCCC[C@H](C)Oc2ccc(NC(=O)c3ccccc3)cc2C(=O)N([C@@H](C)CO)C[C@@H]1C
    ., ., ., ., i, -1, -4, 1.9, 1.3
> O=C(Nc1ccccc1-c1ccccc1)c1ccc(Br)o1
    -1.1, 17, 0.67, ?, ., ., ., ., .
> CCN(c1ccccc1)S(=O)(=O)c1cc([N+](=O)[O-])ccc1N
    1.3, 5, 0.68, 7%, ., -35, -58, -12, 6.4
> Cn1cc(S(=O)(=O)Nc2ccc(Cl)cc2Cl)c(=O)n(C)c1=O
    4.1, -1, 0.72, ., i, 6, -8, -6.6, -6.2
> COc1cccc(NC(=O)OCCN2CCN(Cc3ccccc3)CCC2=O)c1
    3.4, 1, 0.67, 3%, +, 8, 6, 4.4, 1.2
> CC(C)(C)OC(=O)C(Cl)(C(=O)OC(C)(C)C)c1ccc2nnnn2n1
    2.0, ., 0.67, 16%, i, 4, 8, -0.3, -3.5
> O=C1c2ccccc2C(c2nnnn2-c2ccc3c(c2)OCCO3)N1CCCN1CCOCC1 (configuration not stated)
    -3.3, ., ., ., i, 19, 13, -2.6, -1.4
> Cc1ccc(C(=O)NC(C)c2ccc(-n3ccnc3)cc2)cc1 (configuration not stated)
    0.7, -3, 0.69, ., i, 5, -5, 2.3, 1.7
> Cc1csc(N2CCN(c3cc4nc(-c5ccncc5)[nH]c4cc3Cl)CC2)n1
    4.0, 3, 0.69, ., i, 2, 2, -4.0, 2.3
> Cc1ccccc1N1CCN(C(=O)CN2C(=O)c3ccccc3C2=O)CC1
    0.7, -5, 0.68, 2%, ., -24, -24, -6.9, .
> O=C(Cc1ccncc1)NCC[C@@H]1CC[C@@H](NC(=O)C2CCCCC2)[C@@H](CO)O1
    ., ., ., ., i, -3, 2, -2.6, 0.3
> O=C(CSc1cc(Cl)ccc1Cl)NCC(=O)Nc1ccc(F)c(F)c1F
    -2.6, -23, ., 4%, i, -19, -19, -6.7, -3.7
> CCCCNc1ncnc2c1nnn2Cc1ccccc1Cl
    -4.3, -7, 0.7, ., i, 6, 16, -1.8, -2.7
> CC(Sc1nnc(CC(=O)Nc2ccccc2F)n1C)C(=O)Nc1nccs1 (configuration not stated)
    -1.2, 4, 0.67, ., i, 4, 2, -2.3, -2.1
> Cc1ccc(S(=O)(=O)N2CCCNCC2)cc1
    1.3, 3, 0.66, ., i, 7, 12, 0.3, 2.8
> Cc1ccc(C)c(C(=O)CCC(=O)NNC(=O)c2cccs2)c1
    4.4, -1, 0.69, ., i, ., ., ., -0.2
> COC(=O)c1ccc(Nc2c([N+](=O)[O-])c(=O)oc3ccccc23)cc1
    4.5, 5, 0.65, ?, i, 9, 13, 1.4, 2.7
> Cc1nc(N2CCOCC2)c2c(C)c(C(=O)Nc3ccccc3C(F)(F)F)sc2n1
    -5.3, -1, 0.69, -7%, i, 0, -8, -14, -41
> COc1ccccc1-c1nnc(SCc2nc3ccccc3[nH]2)n1C
    -0.4, -4, 0.71, 4%, ., 1, -10, -0.1, 3.8
> Cc1cc(C(=O)Nc2cccc(C)c2C)c2ccccc2n1
    3.4, -7, 0.69, 3%, i, 3, 14, -1.5, -0.3
> CN(C)/C=N/c1cc(=O)[nH]c(=O)n1Cc1ccccc1
    -1.7, -11, ., 26%, i, 8, 9, 8.7, -15
> COc1ccc(N(CC(=O)NCc2cccs2)S(=O)(=O)c2ccc(F)cc2)cc1
    -1.9, 0, 0.68, -10%, i, ., ., ., -0.4
> CCCC(=O)Nc1ccc2c(c1)OC[C@H](C)N(Cc1nccs1)C[C@H](C)[C@H](OC)CN(C)C2=O
    ., ., ., ., i, -4, -2, -0.3, 0.2
> O=C(CCC(=O)N1CCOCC1)Nc1nnc(C2CCCCC2)s1
    0.2, -3, 0.71, 28%, ., ., ., ., .
> Cc1ccc(-c2cnc3c(c2)C(=O)N([C@H](C)CO)C[C@H](C)[C@H](CN(C)Cc2ccccc2F)O3)cc1
    ., ., ., ., i, -2, -11, -0.6, -8.0
> O=C(CSc1ccc(-c2ccccn2)nn1)NC1CCCC1
    -2.6, -2, 0.72, ., i, 10, -16, 0.1, -1.9
> CO[C@H]1CN(C)C(=O)c2ccc(NC(=O)c3ccccc3F)cc2OC[C@H](C)NC[C@H]1C
    ., ., ., ., i, 0, 1, 3.7, -3.4
> CN(CCC#N)C(=O)CSc1nnc(-c2c[nH]c3ccccc23)o1
    1.6, -12, 0.64, -4%, i, 5, 11, -3.1, 2.8
> C[C@H]1CN([C@@H](C)CO)C(=O)c2cccc(NC(=O)C3CCCCC3)c2O[C@H]1CN(C)Cc1ccc(C(=O)O)cc1
    ., ., ., ., i, 4, 6, -0.2, -2.3
> CCc1noc(C)c1C(=O)Nc1sc(C(=O)N(C)C)c(C)c1C#N
    6.0, -9, 0.72, ., i, 8, 3, -0.9, -2.4
> Cc1ccc(S(=O)Cc2ccc(C(=O)N3CCN(C(=O)c4ccco4)CC3)o2)cc1 (configuration not stated)
    -1.5, -5, 0.71, 0%, i, 9, 0, -0.4, 0.2
> CC(C)COC(=O)N(C)C[C@H]1OCc2cnnn2CCCC(=O)N([C@@H](C)CO)C[C@@H]1C
    ., ., ., ., i, -2, 3, -1.8, -0.5
> Cc1ccc(COc2ccc(/C=N/NC(=O)CN3CCCCC3)cc2)cc1
    1.4, ., ., 3%, ., 8, 6, 0.5, -0.2
> Cc1ccc(S(=O)(=O)N(C)c2ccc(OCC(=O)N3CCCC(C(F)(F)F)C3)cc2)cc1 (configuration not stated)
    4.4, -1, 0.7, ., i, -6, -32, 4.2, 4.9
> C/C=C/Cn1c(SCc2ccc(C)cc2)nc2c1c(=O)[nH]c(=O)n2C
    -2.5, 0, 0.77, 4%, ., ., ., ., .

Next part
Value order: HNF4A DNA FP, ALR inh, Ecoli growth, Vif TR-FRET, FGF22 binding, Ecoli rRNA inh, Ecoli rRNA inh OD600, Ecoli rRNA inh RFP, AF4-AF9 inh
> COc1ccc2c(c1)C1NC(=S)NC(C)(O2)C1C(=O)Nc1ccc(Cl)cc1 (configuration not stated)
    0.4, -5, 0.71, -8%, i, -17, -25, -23, -16
> COc1ccc(N2C(=O)CN=C2Nc2cccc(C)c2C)cc1OC
    4.2, 5, 0.69, 21%, ., ., ., ., .
> CCOc1ccc(CCNC(=O)C2CCCN(S(C)(=O)=O)C2)cc1OCC (configuration not stated)
    -3.6, -11, 0.69, 7%, i, -1, 6, -1.0, -8.6
> Cc1nnc(NC(=O)CSc2nnnn2Cc2ccccc2)s1
    1.9, -3, 0.74, 11%, ., ., ., ., .
> CCOC(=O)C(=O)/C(C#N)=C/Nc1ccc(Cl)cc1
    -2.2, -20, 0.7, 0%, ., ., ., ., .
> CCn1cc(C(=O)O)c(=O)c2cnc(N3CCN(C(=S)NC(=O)c4ccc(OC)cc4)CC3)nc21
    -1.9, ., 0.43*, 4%, i, -56, -78, -28, -3.1
> O=C(CSc1nnc(CNc2ccc(F)cc2)o1)c1ccccc1
    -0.3, 3, 0.72, ., i, 6, -2, -2.6, -7.2
> COc1ccc(C(C)C)cc1-c1cncc(NC(C)=O)n1
    -0.4, ., ., ., i, -10, -28, -3.1, -2.3
> O=C(/C=C/c1ccccc1Cl)NCCc1ccccc1
    1.0, ., 0.7, -5%, i, -26*, -16*, -5.4*, -1.2

Assay outcomes as filed in PubChem.

An excerpt; count on the stated rates, not on these rows.
